Sa RN4220 lethal – kills Staphylococcus aureus RN4220; S. aureus RN4220 growth, OD600, 16 h; inhibition, % (test concentration not listed); 330,000 compounds, 0.33% hits;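 active means z-score of -3 or lower and OD600 up to 0.18 on both plates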;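 further: plate controls were untreated cells for no effect and reference antibiotic for full effect; stock transfer was 100 nL into about 80 µL; one replicate is shown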
ugtP null kill – growth inhibition of S. aureus ugtP deletion strain. S. aureus RN4220 ugtP deletion, OD600 growth, 16 h; some inactives read as strong as hits. growth inhibition, % (test concentration not listed). 330,000 compounds, 0.54% hits. AID 1259309;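 active means z-score under -3 and OD600 up to 0.15 on both plates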;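 further: plate controls were untreated wells for no effect and antibiotic for full effect; wells of about 80 µL received 100 nL stock; the first replicate is given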
PrP 5UTR inh – inhibition of PrP 5' UTR reporter expression; AID 488862; 340,000 compounds, 0.35% hits; inhibition, % (no concentration beside the values); cell-based PrP 5' UTR mRNA reporter, plate reader;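 active means every replicate at 50% or more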;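 further: 0 = median of the neutral control wells; tested in H4 reporter cells; numbers are from one replicate; inactives centre near -14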
BJeLR viability – kills HRASV12-expressing BJeLR cells. inhibition, % (concentration not given with the values). BJeLR (HRASV12) viability, CellTiter-Glo ATP luminescence, 48 h; reference of the scale not given here. 300,000 compounds, 0.17% hits;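 active means replicate mean above 50%; inconclusive means above 50% but judged a plate artefact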;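 further: 50 nL library stock added to about 25 µL; numbers are from one replicate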
Mtb hypoxia inh – reduces hypoxia-regulated biosensor signal in M. tuberculosis. M. tuberculosis hypoxia-regulated fluorescent reporter, fluorescence. fluorescence inhibition, % (test concentration not listed). AID 1159583. 300,000 compounds, 0.1% hits;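 active means 35 to 45% if threefold the growth effect, above 45% if 1.5-fold the growth effect; inactive means the rest, general growth blockers included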;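 further: wells of about 50 µL received 100 nL stock; 0% = vehicle wells and 100% = reference inhibitor wells; whole bacteria with a GFP reporter of the hypoxia response; strong numbers were not always called active; many hits fall short of the cut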
Autofluor counter – flagged as autofluorescent in microsphere protease counterscreen. compound autofluorescence counterscreen, microsphere flow cytometry; active compounds read high. fluorescence intensity (test concentration not listed). 360,000 compounds, 3.1% hits. AID 624483;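 active means at least 3 SD above the mean of all compounds, about 16000 in these data; inconclusive means too few beads counted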;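 further: 100 nL of 1 mM stock went into each well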
Mtb hypoxia inh growth – further read-out of Mtb hypoxia inh, marked with its call; growth inhibition, %; measured here: M. tuberculosis growth (absorbance);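 0% = vehicle and 100% = reference antibiotic; read after six days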
* hit, by the source's call; ? = inconclusive; nt = no result given.

1) O=C(Nc1c(-c2ccccc2)nc2ccccn12)c1cccc(F)c1
2) COc1cc(OC)c(C=NNC(=O)Cn2nc([N+](=O)[O-])cc2C)c(OC)c1
3) Cc1sc2ncnc(N3CCC(C(=O)NNC(=O)COc4ccc(Cl)cc4)CC3)c2c1C
4) O=C(O)C1C2CCC(O2)C1C(=O)Nc1ccc(F)c(Cl)c1 (configuration not stated)
5) O=C(O)C1=C[C@H](c2ccc(Br)cc2)C[C@H](OCCCCO)O1
6) Cc1ccsc1CN(C(=O)c1ccccc1)C1CCS(=O)(=O)C1 (configuration not stated)
7) O=C(CNS(=O)(=O)c1ccc(Br)s1)NCCc1ccc(Cl)cc1
8) CCOC(=O)C1CCN(C(=O)CN2C(=O)NC3(CCCCC3)C2=O)CC1

Screen / compound no.	1	2	3	4	5	6	7	8
Mtb hypoxia inh growth	-4	9	11	3	nt	2	4	-4
Sa RN4220 lethal	0.5	-2.0	-3.0	2.4	nt	2.1	5.9	-0.2
PrP 5UTR inh	-29	nt	nt	-11	-21	-8	-2	-22
Mtb hypoxia inh	0	-16	4	2	nt	8	-7	0
ugtP null kill	9	1	-9	3	nt	5	0	1
BJeLR viability	-2	nt	nt	17	-3	1	0	nt
Autofluor counter	3930	nt	?	4504	3173	5731	3868	3603

Of the compounds above, 2 contain two or more sulfur atoms.
6) Cc1ccsc1CN(C(=O)c1ccccc1)C1CCS(=O)(=O)C1 (configuration not stated)
7) O=C(CNS(=O)(=O)c1ccc(Br)s1)NCCc1ccc(Cl)cc1

Screen / compound no.	6	7
Mtb hypoxia inh growth	2	4
Sa RN4220 lethal	2.1	5.9
PrP 5UTR inh	-8	-2
Mtb hypoxia inh	8	-7
ugtP null kill	5	0
BJeLR viability	1	0
Autofluor counter	5731	3868

Continued.
9) COC(=O)CN(c1ccc(C)cc1)S(=O)(=O)c1ccc(F)cc1
10) CSCC[C@H](NC(=O)OC(C)(C)C)c1nnc(SCC(=O)N(C)C)o1
11) CCCCN1CC(C(=O)NCc2ccc(C)cc2)CC1=O (configuration not stated)
12) CCN(C(=O)C(C)OC(=O)CCCNC(=O)c1ccc(Cl)cc1)c1ccccc1 (configuration not stated)
13) CCN(CC(=O)Nc1c(F)cccc1F)C(=O)C1CCN(S(=O)(=O)c2ccc(F)cc2)CC1
14) CC(=O)c1cccc(NC(=O)NC2CCCCC2)c1
15) CC(C)(C)NC(=O)CCN(/N=C/c1ccccc1)C1=NS(=O)(=O)c2ccccc21
16) CC1(C)C2CCC1(C)C(SC(=N)N)C2 (configuration not stated)

Screen / compound no.	9	10	11	12	13	14	15	16
Mtb hypoxia inh growth	4	nt	-2	8	8	-8	nt	8
Sa RN4220 lethal	1.3	0.9	3.9	0.0	2.3	2.5	nt	6.9
PrP 5UTR inh	-18	-17	-8	-5	-25	-14	-14	-15
Mtb hypoxia inh	8	nt	4	8	5	-2	nt	14
ugtP null kill	1	5	1	-5	6	-4	nt	4
BJeLR viability	5	-2	-3	4	3	3	-12	nt
Autofluor counter	4514	5920	18906*	?	?	10617	3850	3618

17) COC(=O)C1C[C@@]2(O)C(O)C(O)C(O)CC2N1Cc1ccc(C(C)(C)C)cc1 (some centres not stated)
18) O=[N+]([O-])c1nn(-c2ccc(Cl)cc2)n(O)c1=NCc1ccccc1Cl
19) Cc1cccc(OCC(=O)Nc2ccc3c(c2)nc(CCN2CCN(C)CC2)n3C)c1
20) O=C(CSc1nnc(NC(=O)C2CC(=O)N(c3ccccc3)C2)s1)NCc1ccco1 (configuration not stated)
21) CCC(C)C(NS(=O)(=O)c1ccc(C)cc1)C(=O)N1CCOCCOCCOCC1 (configuration not stated)
22) O=C(CC1C(=O)NCCN1Cc1ccc(-c2ccccc2)cc1)NCC1CCOCC1 (configuration not stated)
23) O=C(O)c1cc(-c2ccccc2)nn1CC1CC(c2cccc([N+](=O)[O-])c2)=NO1 (configuration not stated)
24) Cc1c(NC(=O)c2cc3ccccc3o2)c(=O)n(-c2ccccc2)n1C

Screen / compound no.	17	18	19	20	21	22	23	24
Mtb hypoxia inh growth	-2	12	6	-6	1	-1	19	5
Sa RN4220 lethal	7.0	-2.2	3.4	3.2	0.9	8.7	3.1	2.3
PrP 5UTR inh	nt	-41	-6	-28	-31	-11	nt	9
Mtb hypoxia inh	-1	10	1	-5	-3	4	8	9
ugtP null kill	0	10	-10	9	9	1	3	8
BJeLR viability	nt	6	4	6	-2	-9	-4	1
Autofluor counter	nt	nt	3767	5188	4046	4374	nt	3219

25) CCN(CC(O)Cn1c2ccccc2c2ccccc21)S(=O)(=O)c1ccc(F)cc1 (configuration not stated)
26) Cc1ccc(C)c(Cn2nnc3c(=O)[nH]c(C4CCCN(C(=O)c5ccco5)C4)nc32)c1 (configuration not stated)
27) CCn1c(SCc2ccc(Cl)cc2Cl)nc2nc3c(cc2c1=O)CCCC3
28) Nn1c(COc2cccc(Br)c2)nnc1SCC(=O)N1CCc2ccccc2C1
29) Cc1ccc(-c2nc3ccccn3c2NCc2ccc3c(c2)OCO3)cc1
30) COC(=O)c1cccc(C23CC4(C2)[C@H](CN(Cc2ccc(C(F)(F)F)cc2)[C@@H]4c2ccccc2)C3c2ccc(Cl)nc2)c1 (some centres not stated)
31) COc1cc(-c2cc(C(=O)O)c3c(OC)c(OC)c(OC)cc3n2)ccc1O
32) Cn1cnnc1SCCn1c(N2CCCCC2)nc2c1c(=O)[nH]c(=O)n2C

Screen / compound no.	25	26	27	28	29	30	31	32
Mtb hypoxia inh growth	2	9	6	5	16	nt	nt	8
Sa RN4220 lethal	-1.2	1.2	0.5	-1.6	2.0	nt	-2.4	2.0
PrP 5UTR inh	-17	-22	-34	-5	-61	-7	-4	2
Mtb hypoxia inh	3	13	-1	-1	6	nt	nt	-3
ugtP null kill	-34	4	4	0	-4	nt	1	2
BJeLR viability	nt	-8	-2	-10	-20	-2	5	3
Autofluor counter	10322	3731	9432	3883	4303	2836	4417	6121

33) CCOC(=O)N1CCN(C(=O)c2ccc(-n3c(=S)[nH]c4ccccc4c3=O)cc2)CC1
34) Cc1ccc(C(=O)O)cc1NC(=S)NC(=O)C(c1ccccc1)c1ccccc1
35) Cc1nn(Cc2ccccc2)c2c1C(c1ccccc1)C(C#N)=C(N)O2 (configuration not stated)
36) O=C(NC1CCCCC1)C1CC(=O)N(c2ccccc2)C1 (configuration not stated)
37) O=C(O)/C=C/C(=O)NCCc1ccccc1
38) CCN(CC(=O)NNC(=O)c1ccccc1)Cc1ccc(OC)c(F)c1
39) COc1cccc(/C=N/NC(=O)CCCC(=O)NC2CCCCC2)c1
40) O=c1[nH]c(=S)[nH]c2scc(-c3ccc(Br)cc3)c12

Screen / compound no.	33	34	35	36	37	38	39	40
Mtb hypoxia inh growth	9	nt	nt	-2	-10	11	nt	0
Sa RN4220 lethal	2.5	9.7	2.6	-0.7	7.3	2.6	nt	16
PrP 5UTR inh	-4	-20	-4	-1	-20	2	-27	-15
Mtb hypoxia inh	17	nt	nt	-10	-5	3	nt	-5
ugtP null kill	-4	1	5	-2	5	-1	nt	4
BJeLR viability	-6	-3	-2	3	-9	nt	8	7
Autofluor counter	12776	3134	3958	3013	4458	6686	6929	3974

41) c1ccc(OCc2nn3c(C4CCCCC4)nnc3s2)cc1
42) CC(C)CSc1nc(N)nc2c1ncn2C1OC(CO)C(O)C1O (configuration not stated)
43) O=C(N/N=C/c1c(F)cccc1Cl)c1cc(C2CC2)[nH]n1
44) O=C(CCNS(=O)(=O)c1cccs1)N1CCc2ccccc2C1
45) O=C(Nc1ccc(S(=O)(=O)Nc2ncccn2)cc1)c1cccnc1
46) O=C(NC(Cc1ccccc1)C(=O)O)/C(=C/c1ccco1)NC(=O)c1cccc(Br)c1 (configuration not stated)
47) N#C/C(C(=O)NCCc1ccccc1)=C1/N=C(NC(=O)c2cccs2)c2ccccc21
48) O=C(OCC(=O)N1CCCCCC1)c1ccc(F)cc1F

Screen / compound no.	41	42	43	44	45	46	47	48
Mtb hypoxia inh growth	7	8	nt	nt	25	7	3	6
Sa RN4220 lethal	4.0	-2.6	nt	2.0	2.8	4.1	3.7	-0.3
PrP 5UTR inh	1	-23	-66	-25	-18	-26	-22	-18
Mtb hypoxia inh	13	10	nt	nt	22	9	0	-1
ugtP null kill	1	-8	nt	1	1	13	-11	2
BJeLR viability	0	nt	-16	-1	21	-15	13	nt
Autofluor counter	7955	3678	5823	2912	2266	2587	2319	5091

49) O=C1/C(=C/c2cccc(F)c2)SC(=S)N1NS(=O)(=O)c1ccccc1
50) COc1ccc(CC(=O)NNC(=O)COc2ccc(Br)cc2C)cc1OC
51) COc1cccc(N/C(=N\C(=S)Nc2ccc(C)cc2C)Nc2nc(C)cc(C)n2)c1
52) Cc1ccc(S(=O)(=O)N2CCCC(C(=O)NCc3ccco3)C2)cc1Cl (configuration not stated)
53) COc1ccc(Cl)cc1NC(=O)c1nc2nc(C)cc(C(F)F)n2n1
54) Nc1ncc(Br)cc1S(=O)(=O)NCCC(=O)NC1CCCCC1
55) CC(CCc1ccccc1)NC(=O)c1ccco1 (configuration not stated)
56) O=C(c1cnn(-c2cccc(F)c2)c1)c1ccccc1O

Screen / compound no.	49	50	51	52	53	54	55	56
Mtb hypoxia inh growth	-4	2	-3	7	10	1	nt	-2
Sa RN4220 lethal	35	3.3	5.9	-0.3	-10	0.2	-3.4	3.8
PrP 5UTR inh	-22	-5	nt	0	-11	-3	-17	-53
Mtb hypoxia inh	-1	8	6	4	5	-11	nt	3
ugtP null kill	1	3	-11	0	-1	3	8	3
BJeLR viability	2	-10	nt	-7	2	-5	5	10
Autofluor counter	3967	2040	nt	19976*	5587	5274	3187	4029

Quoted at random: 2 records from the list, in no set order.
50) COc1ccc(CC(=O)NNC(=O)COc2ccc(Br)cc2C)cc1OC
53) COc1ccc(Cl)cc1NC(=O)c1nc2nc(C)cc(C(F)F)n2n1

Screen / compound no.	50	53
Mtb hypoxia inh growth	2	10
Sa RN4220 lethal	3.3	-10
PrP 5UTR inh	-5	-11
Mtb hypoxia inh	8	5
ugtP null kill	3	-1
BJeLR viability	-10	2
Autofluor counter	2040	5587

Next part:
57) Cc1cccc(C)c1NC(=O)Cn1nnc(C(=O)Nc2ccc(F)cc2F)c1N
58) CN1C(=O)c2ccccc2C(C(=O)O)C1c1cccc([N+](=O)[O-])c1 (configuration not stated)
59) CC(=O)C(=NNc1ccc([N+](=O)[O-])cc1)N1CCCc2ccccc21
60) O=C(N/N=C/C=C/c1ccc([N+](=O)[O-])cc1)C1COc2ccccc2O1 (configuration not stated)
61) CCOC(=O)c1nn(-c2ccccc2)c(C)c1C(C)=O
62) Cc1ccccc1Cn1nc(C)c(NC(=O)c2noc3c2CC(C(C)(C)C)CC3)c1C (configuration not stated)
63) CCN(CC(=O)Nc1ccc(NC(C)=O)cc1)C(=O)c1cccc(S(=O)(=O)N2c3ccccc3CC2C)c1 (configuration not stated)

Screen / compound no.	57	58	59	60	61	62	63
Mtb hypoxia inh growth	-15	3	5	nt	6	8	3
Sa RN4220 lethal	1.5	-0.6	1.7	nt	0.6	0.2	3.0
PrP 5UTR inh	-5	-7	nt	-13	-14	-9	-23
Mtb hypoxia inh	-6	10	12	nt	0	0	6
ugtP null kill	-6	5	-5	nt	-2	-5	1
BJeLR viability	3	-10	nt	1	-6	-7	-6
Autofluor counter	5580	3423	nt	2136	4065	7718	?
